CtBP-E1A inh – CtBP/E1A binding inhibition | AlphaScreen GST-E1A/His-CtBP binding, 1536-well; active compounds read low; control for the full effect not named in the record | hit rate 0.49% among 340,000 | activity change, % (no concentration beside the values); in the data active means activity change below about -65%; inconclusive means about -30% to -65%; inactive means above about -30%; note: % is set by controls: 0 for no effect and ±100 for the full control effect
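In 5 uL wells, 23 nL compound meets equimolar GST-E1A and His-CtBP (5X stock 125 nM each) for 2 h, 37 °C. Beads (5X, 50 ug/mL) then 1 h, 37 °C, dark.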
TRPML1 agonist – agonists of human TRPML1 channel; TRPML1-expressing cells, Ca2+ dye fluorescence, FDSS; host cell line not named in the record; reference of the full effect not given here; activation, % (concentration not given with the values); hit rate 0.12% among 410,000; in the data active = activation above about 50%; inconclusive = about 30% to 50%; inactive = below about 30%; note: 0% is about no effect; the text of the record puts the active cut at 80%
Target sequence (Q9GZU1 whole entry, looked up): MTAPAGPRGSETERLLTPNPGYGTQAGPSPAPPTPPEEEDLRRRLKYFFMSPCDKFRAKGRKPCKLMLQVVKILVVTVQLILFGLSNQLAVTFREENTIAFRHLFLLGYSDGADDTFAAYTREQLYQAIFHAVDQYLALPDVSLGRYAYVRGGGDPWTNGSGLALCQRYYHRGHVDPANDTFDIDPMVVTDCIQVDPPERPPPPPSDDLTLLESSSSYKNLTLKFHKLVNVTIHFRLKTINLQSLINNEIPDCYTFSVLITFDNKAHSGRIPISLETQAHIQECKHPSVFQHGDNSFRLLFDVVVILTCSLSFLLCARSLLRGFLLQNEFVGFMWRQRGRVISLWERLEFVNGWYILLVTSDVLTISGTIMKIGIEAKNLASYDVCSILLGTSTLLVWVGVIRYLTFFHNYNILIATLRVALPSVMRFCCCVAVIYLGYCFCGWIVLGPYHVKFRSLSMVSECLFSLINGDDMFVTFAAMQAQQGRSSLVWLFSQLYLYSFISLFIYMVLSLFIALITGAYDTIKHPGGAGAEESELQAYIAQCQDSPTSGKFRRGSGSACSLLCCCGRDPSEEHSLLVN
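TRPML1-DL cells, Tet-induced overnight (~16 h, 37 degrees C), loaded 45-90 min at room temperature with Ca8 no-wash calcium dye plus quencher. FDSS fluorescence: 10 s baseline, compound pin-transfer, 110 s agonist read, then EC80 54-4 (4uM final) and 110 s antagonist read.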
PINK1 modulator – PINK1 expression modulation; AID 624263; hit rate 0.2% among 410,000; Potency, µM (highest dose often 76.6 µM), for the others: at the top dose activation (PINK1 increase), most hits filed as activators; PINK1 immunofluorescence, high-content cytometry, 24 h; active = well fitted activation curve with a large enough effect; inconclusive = small, poorly fitted or top-dose-only effect; inactive = flat fitted curve, though single readings scatter; cell line not stated here;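 note: potency is the fitted concentration of half-maximal effect; % of control where 0% means no effect; nearly all actives have a fitted effect of over 65% in size; a mitochondrial uncoupler was the plate control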
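Cells are seeded, rested 12 hours, then given compound at five concentrations or DMSO for 24 hours. After fixation, blocking and antibody staining, PINK1 amount and mitochondrial localization are scored; CCCP serves as control.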
D2 ag – activates the human D2 dopamine receptor; activation, % (no concentration beside the values); DiscoveRx PathHunter D2 beta-arrestin, luminescence, 90 min; 100% = 57 uM dopamine signal; P14416; hit rate 0.084% among 360,000; AID 624465; in the data active = activation above about 40%; inconclusive = about 15% to 40%; inactive = below about 15%; note: compound concentration not given in the record; the text of the record calls up to 30% inactive
Target sequence (P14416 whole entry, looked up): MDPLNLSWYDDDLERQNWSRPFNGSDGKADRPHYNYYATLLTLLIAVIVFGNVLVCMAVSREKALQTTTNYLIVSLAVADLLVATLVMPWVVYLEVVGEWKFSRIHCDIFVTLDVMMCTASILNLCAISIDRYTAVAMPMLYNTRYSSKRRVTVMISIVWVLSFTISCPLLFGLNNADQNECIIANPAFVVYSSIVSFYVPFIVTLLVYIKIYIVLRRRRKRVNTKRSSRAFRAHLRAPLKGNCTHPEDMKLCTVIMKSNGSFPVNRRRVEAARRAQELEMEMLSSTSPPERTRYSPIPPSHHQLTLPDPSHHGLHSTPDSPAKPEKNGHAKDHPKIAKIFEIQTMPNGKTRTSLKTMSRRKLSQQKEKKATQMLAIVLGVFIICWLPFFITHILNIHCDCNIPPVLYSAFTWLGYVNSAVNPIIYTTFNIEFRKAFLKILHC
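Agonist mode: compounds alone added to overnight-plated D2 PathHunter cells for 90 min at 37 C, with 57 uM final dopamine (EC100) defining full response. Beta-arrestin recruitment detected by chemiluminescent reagent, read after 1 h at ambient temperature.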
TRPML1 inh – inhibitors of human TRPML1 channel; TRPML1-inducible cells, Ca2+ dye fluorescence, FDSS; active compounds read low; inhibition of EC80 agonist-evoked calcium signal; activity change, negative = inhibition, % (concentration not given with the values); hit rate 0.02% among 390,000; in the data active means activity change below about -50%; inconclusive means about -30% to -50%; inactive means above about -30%;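 note: stimulus is agonist 54-4 at its EC80 concentration; % is set by controls: 0 for no effect and ±100 for the full control effect; the text of the record puts the active cut at -80%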
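Tet-induced TRPML1-DL cells loaded with Ca8 no-wash calcium dye were read kinetically on FDSS. Compound addition was followed by EC80 agonist 54-4 (4 uM final); inhibition was read over 110 s.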
Six1-Eya2 blk – Six1/Eya2 interaction inhibition; Q15475+O00167; activity change, % (concentration not given with the values); hit rate 0.56% among 360,000; AlphaScreen GST-Six1/His-Eya2 binding, biochemical; active compounds read low; control for the full effect not named in the record; in the data active = activity change below about -65%; inconclusive = about -30% to -65%; inactive = above about -30%; note: % is set by controls: 0 for no effect and ±100 for the full control effect
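AlphaScreen luminescence read after one hour at 37 °C in darkness. Pin-transferred compounds met GST-Six1 and His-Eya2 protein (5X stock 250 nM/500 nM) plus glutathione donor and Ni-chelate acceptor beads (5X, 50 ug/mL).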
An asterisk follows results filed as active; ? = inconclusive; . = not tested or not shown; & = joins results of further samples; [ ] = another dose, or the depositor's remark.

SMILES | CtBP-E1A inh | TRPML1 agonist | PINK1 modulator | D2 ag | TRPML1 inh | Six1-Eya2 blk
CCOC(=O)CCC(NC(=O)c1ccc(CNc2nc3cc(C(F)(F)F)ccc3nc2C(=O)OCC)cc1)C(=O)OCC (stereo not drawn) | -17 | 1.1 | 6.1% | 1.6 | -10 | 9
Cc1cc(NC(=O)c2sc(Nc3ccc(F)c(Cl)c3)nc2N)no1 | -4 | 0.5 | 10% | 2.6 | 5 | -3
CC1CCN(C(=O)c2ccc(CNc3c(N4CCCC4)c(=O)c3=O)cc2)CC1 | -4 | 1.0 | 3.8% | -2.0 | 15 | 4
CCOc1ccc(NC(=O)Cn2nnc(C(=O)NCCc3ccccc3)c2N)cc1 | . | -1.1 | 4.1% | . | 15 | .
O=C(/C=C/c1ccccc1Cl)c1ccc(O)cc1 | ? | 0.1 | -2.3% | -3.1 | 34 | -19
CCOc1ccc(CNC(=O)C2CCN(S(=O)(=O)c3ccc4c(c3)CCCC(=O)N4)CC2)cc1 | -14 | -0.4 | 0.3% | -2.3 | -11 | 2
COCCCNc1nc2c(-c3ccc(Cl)cc3)nnn2c2ccccc12 | 9 | -0.4 | 0.9% | -5.5 | -6 | 4
CCOc1ccccc1-n1c(C)cc(C=O)c1C | 9 | 0.1 | 1.0% | -1.1 | -1 | -24
COc1cccc(Nc2nc(N)nc(CCl)n2)c1 | -3 | 0.0 | 3.6% | -0.2 | 10 | -14
O=C(CCN1CCc2ccccc2C1)Nc1cccc(F)c1 | 1 | 0.3 | -0.6% | -4.4 | -1 | 2
COc1ccc(NS(=O)(=O)c2ccc(C)c(C(=O)N3CCCCCCC3)c2)cc1 | 3 | -0.8 | 1.8% | -0.6 | -13 | 0
COC(=O)/C=C1/N/C(=N\c2nc(C)cc(C)n2)N(c2ccc(C)c(C)c2)C1=O | 1 | 4.5 | 4.6% | -2.9 | 4 | 0
Cc1ccc(C)c(NC(=O)C2CCCN2S(=O)(=O)c2ccc3c(c2)n(C)c(=O)c(=O)n3C)c1 (stereo not drawn) | -1 | 0.1&-0.7 | 1.7%&0.0% | -6.6 | -18&-5 | 2
CC1(C(=O)NS(=O)(=O)Cc2cccc(Cl)c2)CCN1C(=O)Cc1ccccc1 (stereo not drawn) | 1 | -0.2 | -0.5% | -5.8 | . | 7
CN(CCc1cnn(C)c1)Cc1cn[nH]c1-c1ccc(-c2ccccc2)cc1 | -1 | -0.5 | 0.9% | -0.8 | 34 | -4

One compound at a time (already shown). Order of screens: CtBP-E1A inh	TRPML1 agonist	PINK1 modulator	D2 ag	TRPML1 inh	Six1-Eya2 blk
Cc1cc(NC(=O)c2sc(Nc3ccc(F)c(Cl)c3)nc2N)no1 as listed: -4	0.5	10%	2.6	5	-3
COCCCNc1nc2c(-c3ccc(Cl)cc3)nnn2c2ccccc12 as listed: 9	-0.4	0.9%	-5.5	-6	4
CC1(C(=O)NS(=O)(=O)Cc2cccc(Cl)c2)CCN1C(=O)Cc1ccccc1 (stereo not drawn) as listed: 1	-0.2	-0.5%	-5.8	.	7
CCOc1ccccc1-n1c(C)cc(C=O)c1C as listed: 9	0.1	1.0%	-1.1	-1	-24

More structures follow.
SMILES | CtBP-E1A inh | TRPML1 agonist | PINK1 modulator | D2 ag | TRPML1 inh | Six1-Eya2 blk
CC(C)(C)CN1CCNC[C@H]1Cc1ccc(O)cc1 | 5 | -0.3 | 0.9% | -3.2 | -6 | 1
O=C(NCCN1CCN(C(=O)c2ccc([N+](=O)[O-])cc2)CC1)C(=O)NCc1ccccc1 | 7 | 0.3 | -0.7% | 2.4 | -3 | 6
Cc1cccc(CS(=O)(=O)c2ncc(Cl)c(C(=O)Nc3nnc(C(C)C)s3)n2)c1 | -3 | -0.1&0.7 | -1.5%&-0.2% | -1.1 | -2&-20 | -23
C=CCNc1nc(NCCOC)c2sc(-c3ccccc3)cc2n1 | -4 | -1.3 | 5.2% | 2.7 | . | -2
COc1ccccc1/C=C/CN1CCC(Oc2cc(C(=O)NC3CC3)ccc2OC)CC1 | . | 2.6 | -0.1% | -5.1 | 14 | 4
Cc1cccc(N2CCN(c3ccc(C(=O)O)cc3NC(=O)c3ccccc3F)CC2C)c1 (stereo not drawn) | . | -1.1 | -0.3% | . | 11 | .
O=C(Cn1c(NCCO)nc2ccccc21)NCCc1ccc(F)cc1 | -8 | -0.4 | -3.5% | -0.5 | -7 | 11
CSc1nc2ncnc(N)c2[nH]1 | -2 | 0.3 | 1.1% | -5.3 | 23 | -15
COc1ccc(Cc2nnc(SCC(=O)Nc3ccc(C)cc3)n(N)c2=O)cc1 | 1 | 1.2 | 5.1% | -0.5 | 7 | 8
N#C/C(=C/c1ccccc1[N+](=O)[O-])c1nnc2n1CCCCC2 | 6 | 0.4 | -0.4% | 2.1 | 16 | 2
C=CCC[C@@H](CCCCC)OC(=O)/C=C/[C@@H](O)[C@H](O)C[C@@H](O)CC=C | -7 | -0.6 | 4.5% | . | . | 15
Cc1nn(-c2ccc(C(=O)O)cc2)c(C)c1Oc1ccccc1O | 4 | -0.7 | 1.7%[38.3 µM] | -2.5 | -2 | 0
COc1ccccc1CNC(=O)C1(C)CCCCN1C (stereo not drawn) | 0 | 0.2 | 3.7% | -5.6 | . | 0
CCn1nc(C)c(CN2CCC(n3nccc3NC(=O)c3ccccc3OC)CC2)c1C | 3 | -0.1 | -0.9% | -2.0 | 16 | -2
O=C(Nc1ccccc1F)N(CCCN1CCOCC1)Cc1cc2cc3c(cc2[nH]c1=O)OCCO3 | 3 | 0.5 | 0.5% | -2.8 | 0 | 15
CC[C@]12c3[nH]c4cc(-c5ccco5)ccc4c3CCN1C(=O)[C@@H](CC(=O)NCc1ccc(OC)c(OC)c1)C[C@@H]2C(=O)N1CCN(C(=O)C2CC2)CC1 | -4 | 2.9 | 0.1% | 0.0 | -28 | -5
O=C(COC(=O)c1cc([N+](=O)[O-])ccc1N1CCOCC1)Nc1cc(F)ccc1F | 0 | -0.4 | 4.6% | -4.2 | -11 | -2
Cc1cccc2nc(-c3cccc(NC(=O)c4ccc(Cl)cc4)c3)cn12 | 0 | -0.7 | 2.9% | 2.2 | -3 | -3
O=C1C(NS(=O)(=O)c2ccc(Br)cc2)=C(N2CCCCC2)C(=O)c2ccccc21 | . | 76* | 4.3% | 1.4 | -19 | ?
NC(=O)CSc1nnc(NC(=O)c2ccc(S(=O)(=O)N3CCOCC3)cc2)s1 | -1 | -0.4 | 1.3% | -3.3 | 11 | 3
CCC(CO)Oc1cc(NC(=O)c2ccccc2Cl)c2ncn(C(C)C)c2c1 (stereo not drawn) | 0 | -0.4 | 1.3% | 3.5 | -8 | 2
Oc1ccccc1C=NN=CC=Cc1ccccc1 | 3 | 0.4 | ? | -3.5 | 2 | -4
O=[N+]([O-])c1cccc(OCC(O)CN2CCN(S(=O)(=O)c3cc(Cl)ccc3Cl)CC2)c1 (stereo not drawn) | -8 | 2.5 | 3.4% | 5.7 | 1 | -1
COc1ccc(NC(=O)C2CSC(C)(C)N2C=O)cc1 (stereo not drawn) | . | 0.4 | -0.5% | -2.1 | 4 | 3
CCCCNC(=O)c1c(CSc2ccc(Cl)cc2)noc1C(=O)NCc1ccccc1 | 18 | 1.8 | 2.4% | -2.8 | 2 | 18
COc1ccc(C(=O)/C=C/c2ccc(N3CCCCC3)c([N+](=O)[O-])c2)cc1 | -3 | 3.8 | -1.2% | -1.9 | -3 | -4
O=C(COc1ccc(Cl)cc1)NCC(c1ccco1)S(=O)(=O)c1ccc(F)cc1 (stereo not drawn) | . | 1.4 | 0.4% | . | 4 | .
CCOC(=O)c1cccc(NC(=O)Nc2ccc3c(c2)C(=O)OC3)c1 | -18 | 1.5 | 4.5% | -1.0 | 14 | 5
CN(C)C(=O)c1ccc(SC(=S)NCc2ccccc2)cc1 | 1 | -0.2 | 2.0% | -2.9 | . | 2
N#Cc1ccccc1COC(=O)c1cccnc1N | 1 | -0.1 | -1.1% | 0.8 | 2 | 0
CCN(CC)C(=O)c1ccc(S(=O)(=O)NCc2cccnc2)cc1 | 2 | 0.7 | 1.0%[38.3 µM] | -0.4 | -4 | 4
CCN(CC)C(=O)CSc1nc(N)c2c3c(sc2n1)CC(C)CC3 (stereo not drawn) | -26 | 1.0 | 0.0% | -1.9 | -5 | ?
CC(=O)c1cccc(NS(=O)(=O)c2cc(-c3onc(C)c3C)ccc2C)c1 | . | 2.0 | 3.5% | . | 10 | .
COCCN(C(=O)COC(=O)C1CCCCC1)c1c(N)n(Cc2ccccc2)c(=O)[nH]c1=O | -3 | 0.5 | 1.6% | -1.4 | 14 | 0
CCOCCCNc1nc2c(C)cccn2c(=O)c1/C=C1\SC(=S)N(C(C)CC)C1=O (stereo not drawn) | -1 | -0.1 | 14% | -0.2 | -4 | 2
O=C(Cc1ccc(Cl)cc1)Nc1ccc2oc(-c3ccc(F)cc3)nc2c1 | . | 0.1 | 7.4% | . | -4 | .
NS(=O)(=O)c1ccc(CCNC(=O)c2ccc3ccccc3n2)cc1 | -5 | -1.6 | 0.0% | -1.4 | -5 | -9
NC1=NC(=Nc2ccccc2)c2ccccc21 | 14 | 0.6 | -2.3% | -3.5 | -13 | 12
CCCCOc1ccc(CON(C(C)=O)C(C)=O)cc1Cl | 8 | . | 0.0% | 3.2 | . | 4
CCN(c1ccc2c(c1)OCO2)S(=O)(=O)c1cc(Br)cc2c1N(C(=O)C1CC1)CC2 | -20 | 1.2 | 0.5% | 1.7 | 50 | -17
O=[N+]([O-])c1ccc(NS(=O)(=O)N2CCOCC2)cc1 | -1 | 0.6 | 1.2% | -3.9 | 47 | 7

Grouped by structure, the entries above containing bromine
SMILES | CtBP-E1A inh | TRPML1 agonist | PINK1 modulator | D2 ag | TRPML1 inh | Six1-Eya2 blk
O=C1C(NS(=O)(=O)c2ccc(Br)cc2)=C(N2CCCCC2)C(=O)c2ccccc21 | . | 76* | 4.3% | 1.4 | -19 | ?
CCN(c1ccc2c(c1)OCO2)S(=O)(=O)c1cc(Br)cc2c1N(C(=O)C1CC1)CC2 | -20 | 1.2 | 0.5% | 1.7 | 50 | -17
